Vaccinia mCherry: inhibitors of vaccinia virus infection (mCherry reporter signal); Vaccinia virus mCherry reporter infection, fluorescence; about a quarter of the inactives have no number; Potency, µM (titrated, usually from 36.5 µM), inactives show top-dose activity change, negative = inhibition, most hits filed as inhibitors; actives 0.63% (n = 310,000); AID 720579; active = well fitted inhibition curve with a large enough effect; inconclusive = small, poorly fitted or top-dose-only effect; inactive = no such curve, though single readings can be large or run the other way; tested in A549 cells; note: nearly all actives have a fitted effect of over 35% in size; inactives centre near -10
Vaccinia Venus: vaccinia inhibition (Venus reporter). Vaccinia virus Venus reporter expression, fluorescence. Potency, µM (series often up to 36.5 µM), for inactives: top-dose activity change, negative = inhibition, hits mostly inhibitors. actives 0.46% (n = 330,000). AID 720580; active means well fitted inhibition curve with a large enough effect; inconclusive means small, poorly fitted or top-dose-only effect; inactive means no such curve, though single readings can be large or run the other way; tested in A549 cells; note: nearly all actives have a fitted effect of over 30% in size; inactives centre near -10
Starred values were filed as active, the others as inactive; i = inactive; u = inconclusive; x = no result given; [ ] = remark or other dose. % is set by controls: 0 for no effect and ±100 for the full control effect; potency is the fitted concentration of half-maximal effect.

Order of values: Vaccinia Venus, Vaccinia mCherry
- O=C(Nc1ccon1)c1cccn(Cc2ccccc2)c1=O
  2.2%, -12.0%
- COc1ccc2cc(C)c3nnc(SCC(=O)Nc4nc(-c5ccc(F)cc5)cs4)n3c2c1
  -4.6%, -14.6%
- Cc1ccc(CNC(=O)CCCc2c[nH]c3ccccc23)cc1
  -11.4%, u
- CCOC(=O)N1CCN(c2cc(=O)n(-c3ccc(OCC)cc3)c(=O)[nH]2)CC1
  -17.8%, -17.5%
- CCCCC/C=C/C=C1/C(=O)C=C[C@@H]1C/C=C\CCCC(=O)O
  -2.3%[3.33 µM], -14.0%[3.33 µM]
- Cc1c(C(=O)N2CCC(C)CC2)oc2ccc(S(=O)(=O)N3CCC4(CC3)OCCO4)cc12
  -18.5%, -19.8%
- CCOc1cccc(SCc2noc(C(=O)NCC3CCCO3)c2C(=O)O)c1 (centres undefined)
  -5.9%, i
- C=CCN(CC=C)CCOc1ccc(OC(C)C)cc1
  -7.0%, i
- Cc1ccc(N2CCN(S(=O)(=O)N(C)C)CC2)cc1Cl
  -14.8%, -9.9%
- CNS(=O)(=O)c1ccc(C)c(S(=O)(=O)NC)c1
  -15.1%, -6.1%
- O=C(C1CCCN(S(=O)(=O)c2ccc(Br)s2)C1)N1CCN(c2cccc(Cl)c2)CC1 (centres undefined)
  -18.5%, -26.9%
- COc1cc(OC)c2c(C)c(CC(=O)N3CCCCC3)c(=O)oc2c1
  -4.8%, -3.0%
- Cc1ccc(-c2cc(C(=O)N/N=C/c3cccnc3)n[nH]2)o1
  -10.2%, -10.1%
- Cc1ccc(OCCn2nnc3sc4c(c3c2=O)CCC(C)C4)cc1 (centres undefined)
  -9.6%, -12.3%
- CCCc1ccc(OCC(=O)NNC(=O)c2cccnc2)cc1
  1.3%, -3.3%

(further entries)
Order of values: Vaccinia Venus, Vaccinia mCherry
- COc1cc(S(=O)(=O)N2CCOCC2)cc(C(=O)c2nccn2C)c1OC
  3.5%, -1.1%
- Cc1cc(N2CCC(C)CC2)nc2ccc(NC(=O)Cc3ccccc3Br)cc12
  -17.7%, -22.6%
- CC(=C/c1ccccc1)/C=N/NC(=O)c1cccs1
  -8.0%, -0.4%
- CC1CCCN(C(=O)c2ccc3ncsc3c2)C1 (centres undefined)
  -20.3%, i
- CCOc1cc2c(cc1/C=C/c1noc(C)c1[N+](=O)[O-])OC(C)C2 (centres undefined)
  0.5%, -9.4%
- Cc1c(C#N)c2ccccc2n1CCOc1ccccc1F
  -17.8%, i
- CCOC(=O)c1cc(CC)sc1NC(=O)CSc1nc2ccccc2c(=O)n1Cc1ccco1
  -16.2%, i
- CC(=O)Nc1ccc(C(=O)CSc2nc3ccc(C)cc3[nH]2)cc1
  -14.0%, -10.2%
- COc1cccc(CNC(=O)CSc2nc3c(oc4ccccc43)c(=O)n2CC2CCCO2)c1 (centres undefined)
  -14.0%, -25.9%
- CCOC(=O)c1cnc2c(C)cc(C)cc2c1Nc1ccc(S(=O)(=O)Nc2ncccn2)cc1
  -15.7%, i
- CNC(=S)NNC(=O)c1ccc(N(C)C)cc1
  -22.6%[7.34 µM], -2.7%[7.34 µM]
- CCN(CC)c1ccc(NC(=O)COCc2cc(-c3ccc4c(c3)OCO4)on2)c(C)c1
  -26.3%, -1.5%
- O=C(Nc1ccc2c(c1)OCO2)c1noc2c1CCCC2
  -13.9%, -21.7%
- CN(C(=O)CC1C(=O)NCCN1Cc1ccc2ccccc2c1)C1CCOCC1 (centres undefined)
  -19.6%, i
- CCCn1c(=O)c2sccc2n2c(CCCC(=O)NCC3CCCO3)nnc12 (centres undefined)
  0.9%, -12.8%

Continued:
Order of values: Vaccinia Venus, Vaccinia mCherry
- Cc1ccc(S(=O)(=O)Nc2cccc3cccnc23)c([N+](=O)[O-])c1
  u, u
- Cc1ccc(N2C(=O)CC(SCC(=O)Nc3ccc(S(N)(=O)=O)cc3)C2=O)cc1 (centres undefined)
  1.1%, 5.7%
- Cc1cccc(NC(=O)NC2CC(=O)N(c3ccc4c(c3)OCCO4)C2)n1 (centres undefined)
  -15.5%, -4.2%
- COC(CNC(=O)CNC(=S)N(Cc1ccccc1)Cc1cccnc1)OC
  -10.8%, u
- O=S(=O)(c1ccc(S(=O)(=O)N2CCCC2)cc1)N1CCCCC1
  -5.3%, i
- O=C(NCCc1ccc(Cl)cc1)C(=O)NCC(c1ccco1)S(=O)(=O)c1ccccc1 (centres undefined)
  -9.8%, -13.5%
- Cc1ccc(SCC(=O)Nc2ccc(-c3nc4ccccc4[nH]3)cc2)cc1
  u, -27.7%
- Cc1ccc(C)c(-n2c3nc(=O)[nH]c(=O)c-3cc3c(C)nn(-c4ccccc4)c32)c1
  -4.2%, -5.7%
- CC(C)(C)NC(=O)C(c1ccccn1)N(C(=O)c1ccc2c(c1)OCCO2)C1CCCC1 (centres undefined)
  -4.1%, -9.9%
- N=C1C(=O)NC(=O)C1c1ccccc1 (centres undefined)
  -11.4%, i
- CCOC(=O)c1[nH]c2ccc(OC)cc2c1NC(=S)N1CCN(c2cccc(C)c2C)CC1
  u, u
- Cc1ccc(N2C(=O)CCSC23C(=O)N(Cc2ccc(F)cc2)c2ccccc23)cc1 (centres undefined)
  u, u
- O=C(CSc1nc2ccccc2n1S(=O)(=O)c1cccc([N+](=O)[O-])c1)NCc1cccs1
  -1.2%, i
- COc1ccc(N2C(=O)c3ccccc3NC(=O)C2C(=O)Nc2ccc3c(c2)OCCO3)cc1 (centres undefined)
  -4.6%, u
- O=C(Nc1ccccc1-c1ccccc1)C1CCC1
  -11.3%, -9.6%

Six structures from above, ordered by molar mass, largest number first.
Order of values: Vaccinia Venus, Vaccinia mCherry
- O=C(CSc1nc2ccccc2n1S(=O)(=O)c1cccc([N+](=O)[O-])c1)NCc1cccs1
  -1.2%, i
- COc1ccc(N2C(=O)c3ccccc3NC(=O)C2C(=O)Nc2ccc3c(c2)OCCO3)cc1 (centres undefined)
  -4.6%, u
- Cc1ccc(C)c(-n2c3nc(=O)[nH]c(=O)c-3cc3c(C)nn(-c4ccccc4)c32)c1
  -4.2%, -5.7%
- O=S(=O)(c1ccc(S(=O)(=O)N2CCCC2)cc1)N1CCCCC1
  -5.3%, i
- Cc1ccc(S(=O)(=O)Nc2cccc3cccnc23)c([N+](=O)[O-])c1
  u, u
- N=C1C(=O)NC(=O)C1c1ccccc1 (centres undefined)
  -11.4%, i

Carrying on:
Order of values: Vaccinia Venus, Vaccinia mCherry
- O=C(NCCSCc1c(F)cccc1Cl)c1ccc(CN2CCOCC2)cc1
  -14.8%, -16.8%
- Cn1c(CNC(=O)CSc2nc(-c3cccc(Cl)c3)nc3cc(=O)[nH]n23)nc2ccccc21
  4.2%, 3.5%
- CCCn1c(-c2cc(OC)c(OC)c(OC)c2)nc2c1c(=O)[nH]c(=O)n2Cc1ccccc1
  -11.9%, -16.0%
- CN(C)C=Nc1c(Br)cc(Br)c2nonc12
  50.5%[activator], x
- COc1ccc(/C=N/NC(=O)CNS(=O)(=O)c2ccccc2)cc1
  -16.4%, i
- CC(=O)/C(=C/Nc1ccc(Oc2ccccc2)cc1)c1ccccc1
  -6.0%, -18.7%
- Cc1cccc(-n2ncc3c2CCCC3NC(=O)CCN2CCCO2)c1C (centres undefined)
  -15.0%, -20.2%
- CC[C@@]12C(=O)N(c3cccc(F)c3)C(=O)N1[C@H](c1ccc(Cl)cc1)[C@@H]1C(=O)N(C3CCCCC3)C(=O)[C@@H]12
  -10.9%, u
- Cc1cc(C(=O)CSc2nn3c(=O)c(C(C)(C)C)nnc3s2)c(C)n1C
  -11.9%, i
- CCCNC(=O)C1(C)CCCN(C(=O)c2cc(C)nn2C(C)(C)C)C1 (centres undefined)
  -17.1%, i
- COc1ccccc1NC(=O)CSc1n[nH]c(-c2ccco2)n1
  3.0%, -14.2%
- C/C(=N\O)C(C)(C)Nc1ccc(Br)cc1
  -1.6%, -14.8%
- O=C(N[C@@H](Cc1ccc(O)cc1)C(=O)O)c1cccnc1
  -1.2%, -5.1%
- COc1cc(C(=O)NCCC(=O)NC2CCCc3ccccc32)cc(OC)c1OC (centres undefined)
  -13.5%, i
- CC(C)CN1C(=O)C(=O)N(CC(=O)N2CCN(c3ccccc3)CC2)C1=O
  -6.1%, -8.9%

Continued.
Order of values: Vaccinia Venus, Vaccinia mCherry
- O=C(Nc1ccncc1)c1cc(S(=O)(=O)N2CCCCC2)ccc1Cl
  -10.0%, -23.4%
- Cc1ccc(CNC(=O)c2[nH]c(C(F)(F)F)nc2-c2ccccc2)cc1
  -20.0%, 11.1%
- Oc1cc2cc(-c3csc(-c4ccc(F)cc4)n3)ccc2[nH]1
  -12.7%, -23.2%
- CC1CCCCN1C(=S)NC(=O)c1ccco1 (centres undefined)
  -1.5%, -8.9%
- CC(C)C1=Nc2cccc3cccc(c23)N1
  6.5%, -3.4%
- CCNc1ccc(Br)cc(C(=O)/C=C/c2ccc3c(c2)OCO3)c1=O
  -7.2%, x
- Cc1cccc2cc(CN(CCN(C)C)C(=S)Nc3ccccc3)c(=O)[nH]c12
  -18.0%, i
- Cc1cc(NC(=O)COc2cccc(Oc3ccccc3)c2)no1
  -25.7%, x
- CCOc1cc2[nH]c(=O)n(CCC(=O)N3CCN(c4cccc(Cl)c4)CC3)c(=O)c2cc1OCC
  -0.4%, -7.1%
- COCCCNC(=O)[C@H]1N2C(=O)c3ccccc3C2SC1(C)C (some centres undefined)
  -7.1%, u
- O=C(C[n+]1ccccc1)N/N=C/c1cccs1
  -7.9%, i
- COC(=O)N1C(c2ccccc2)C1c1ccccc1 (centres undefined)
  1.7%, 1.2%
- CN1C(=O)/C(=C/c2ccc(OCc3ccc(C(=O)O)cc3)c(Cl)c2)NC1=S
  -3.7%, -5.3%
- CCOC(=O)N1CCC(N2C(=O)c3ccccc3C2Nc2cc(C)cc(C)c2)CC1 (centres undefined)
  -14.4%, -24.1%
- CC(NC(=O)NC1CCCCC1)c1ccccc1 (centres undefined)
  -10.9%, i

Additional records follow:
Order of values: Vaccinia Venus, Vaccinia mCherry
- O=C(NCc1cccc(C(F)(F)F)c1)C1C(=O)Nc2ccccc2C(=O)N1Cc1ccccc1 (centres undefined)
  -27.2%, 2.1%
- C[C@H](CO)N1C[C@H](C)[C@H](CN(C)C(=O)c2cc(-c3ccccc3)on2)OCc2cnnn2CCCC1=O
  -14.8%, -14.9%
- CC(NC(=O)CCCC1CCCCC1)c1ccc(S(N)(=O)=O)cc1 (centres undefined)
  -8.1%, -0.3%
- COc1cc(OC)c(N(C)C(=O)Cn2ncc3c([nH]c4ccccc43)c2=O)cc1Cl
  -1.9%, 2.5%
- Cc1cc(Br)ccc1NC(=O)CNC(=O)CN1C(=O)NC2(CCCCCC2)C1=O
  0.0%, i
- CCOC(=O)N1CCN(c2c(NCc3ccccc3OC)c(=O)c2=O)CC1
  -26.3%, -4.8%
- COc1ccccc1CN(C)CC(=O)NC1CCCc2ccccc21 (centres undefined)
  -21.6%, -2.5%
- Cc1ccc(C)c(NC(=O)COC(=O)CNC(=O)C2CCCCC2)c1
  -14.2%, -14.4%
- Clc1ccc(-c2nc(CSc3ccccn3)cs2)cc1
  -2.7%, i
- COc1ccc2[nH]c(CN3CCN(CC(C)C)C(CCO)C3)c(C)c2c1 (centres undefined)
  -10.7%, -2.8%
- O=C1NCCCC1C(=O)N1CCN(C(=O)c2ccco2)CC1 (centres undefined)
  -7.2%, -14.9%
- CNC(C)C#Cc1ccc2c(=O)c3cc(C)c(C)cc3oc2c1 (centres undefined)
  -28.3%, u
- N=c1c(C(=O)NCc2ccc(F)cc2)cc2c(=O)n3ccccc3nc2n1CC1CCCO1 (centres undefined)
  -8.7%, -18.4%
- O=C(C1CCN(S(=O)(=O)c2cccc3nonc23)CC1)N1CCCCC1
  1.1%, 17.9%
- CC(C)CC(=O)/C=C/n1c(=S)oc2ccccc21
  -3.0%, -11.1%

Reformatted: entries from further up
| canonical_smiles | Vaccinia Venus | Vaccinia mCherry |
| --- | --- | --- |
| Clc1ccc(-c2nc(CSc3ccccn3)cs2)cc1 | -2.7% | i |
| C[C@H](CO)N1C[C@H](C)[C@H](CN(C)C(=O)c2cc(-c3ccccc3)on2)OCc2cnnn2CCCC1=O | -14.8% | -14.9% |

(more compounds)
Order of values: Vaccinia Venus, Vaccinia mCherry
- CC(=O)Nc1ccc(S(=O)(=O)CC(=O)CS(=O)(=O)c2ccc(NC(C)=O)cc2)cc1
  -20.6%, -17.5%
- CC1(C(=O)NS(=O)(=O)Cc2ccccc2)CCN1C(=O)C/C=C/c1ccccc1 (centres undefined)
  2.8%, 5.5%
- CC(=O)NS(=O)(=O)c1ccc(NC(=O)c2cccn(Cc3ccc(Cl)cc3)c2=O)cc1
  14.9%, 11.6%
- COc1ccc(C(C)=O)cc1CN1C(=O)NC2(CCCC2)C1=O
  -3.9%, i
- CN(C)CCOC1c2ccccc2-c2ccccc21
  -6.6%, i
- Cn1c(O)c(/C=N/N2CCOCC2)c(=O)[nH]c1=S
  -8.6%, -12.9%
- Cc1ccc(NC(=O)CN2C(=O)N/C(=C/c3ccccc3OCc3cccc(C(=O)O)c3)C2=O)cc1
  -16.3%, -21.8%
- CC(C)C1C(=O)N(Cc2cn(CCC3OCCCO3)nn2)CCS(=O)(=O)N1Cc1ccc(-c2cccc(CO)c2)cc1 (centres undefined)
  -13.9%, -20.4%
- CC(C)c1ccc(C2c3c(-c4ccccc4O)n[nH]c3C(=O)N2CCc2ccccc2)cc1 (centres undefined)
  u, -3.3%
- CC(C)NC(=O)Nc1ccc2c(c1)C(=O)N([C@H](C)CO)C[C@H](C)[C@@H](CN(C)S(=O)(=O)c1ccccc1)OCCCC[C@@H](C)O2
  -14.4%, -0.5%

Screens deposited in PubChem BioAssay by National Center for Advancing Translational Sciences (NCATS).

Hits appear at their usual frequency; overall some 0.82% were active at least once.
